Assay outcomes (PubChem)
Shh pathway inh – blocks Sonic Hedgehog signaling. AID 2313. 22,000 compounds, 2.1% hits. Shh-LIGHT2 Gli-luciferase reporter, 30 h. inhibition, % (no concentration beside the values);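 active means replicate mean of 65% or more; inconclusive means mean lower but half the replicates past it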;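 further: pathway switched on by Shh-conditioned medium diluted 1 in 25 in low serum; 100 nL library stock added to about 40 µL; 0% = median of neutral wells and 100% = positive control level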
PD-1 reverse act – activators reversing PD-1 mediated T-cell inhibition. primary human CD4 T cells, PD-L1 beads, CellTiter-Glo 96 h. activation, % (concentration not given with the values). 29,000 tested, under 10 active. AID 2316;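 active means replicate mean of 50% or more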;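 further: 0% = median vehicle wells and 100% = positive control; 100 nL library stock added to about 50 µL; numbers are from one replicate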
YB-1 expression – YB-1 expression inhibition. U2OS, qRT-PCR YB-1 vs CDIP delta delta Cp, 16 h; hits give high values; zero = DMSO, each unit about twofold. delta delta Cp (YB-1 minus CDIP) (no concentration beside the values). 30,000 compounds, 0.37% hits. AID 434959;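 active means delta delta Cp rounded down to an integer at or above 3, about 3 SD of DMSO wells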;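 further: higher means less YB-1 transcript or more CDIP transcript relative to DMSO; stock transfer was 100 nL into about 100 µL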
MITF inh – blocks MITF activity | TRPM1 promoter luciferase, luminescence, 24 h | inhibition, % (concentration not given with the values) | 37,000 compounds, 0.28% hits | AID 2240;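 active means most replicates at 85% or more, or half of them and the mean; inconclusive means half reach 85% but not the mean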;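 further: human melanocyte line stably carrying TRPM1 promoter luciferase reporter; 0% = vehicle wells and 100% = a positive control; the first replicate is given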
An asterisk follows results filed as active; ? = inconclusive; . = no result given.

SMILES	Shh pathway inh	PD-1 reverse act	YB-1 expression	MITF inh
O=C(Nc1cccc(-c2nc3ccccc3c(=O)o2)c1)C1CCCCC1	-19	1.0	-0.074	-4
COc1ccc(NC(=O)N(C)C[C@H]2Oc3ccc(NC(=O)NC4CCCCC4)cc3C(=O)N([C@H](C)CO)C[C@H]2C)cc1	.	-1.2	-0.063	-5
C[C@@H]1CN([C@H](C)CO)C(=O)c2cccc(NS(=O)(=O)c3ccccc3)c2O[C@H]1CN(C)Cc1ccc(-c2ccccc2)cc1	-13	-0.1	0.095	-8
C[C@H](CO)N1C[C@H](C)[C@@H](CN(C)Cc2ccc(Oc3ccccc3)cc2)Oc2ccc(NC(=O)Nc3cccc4ccccc34)cc2C1=O	12	-2.7	0.086	-2
COc1ccc(NC(=O)Nc2ccc3c(c2)CC(=O)N([C@@H](C)CO)C[C@@H](C)[C@@H](CN(C)C(=O)Nc2ccc(C(F)(F)F)cc2)O3)cc1	-6	-5.3	-0.63	-16
CON(C)c1nc(Oc2ccc(=O)[nH]n2)nc(N(C)C)n1	.	-0.2	.	-9
CCOC(=O)c1cnc2c(OC)cccc2c1NC1CCCCC1	?	-5.9	-0.066	70
Cc1ccc(OCC(O)Cn2c(C(C)C)nc3ccccc32)cc1 (configuration not stated)	.	0.0	.	15
Fc1cc(F)c(NC(=S)N2CCOCC2)c(F)c1	-26	1.5	-0.015	11
C[C@H]1CN([C@@H](C)CO)C(=O)c2cccc(NC(=O)Nc3ccc(C(F)(F)F)cc3)c2O[C@H]1CN(C)C(=O)Nc1ccc(C(F)(F)F)cc1	-14	1.5	0.39	29
CC(CCC1(C)C(C)CCC2(CO)C(CO)=CCCC21)CC(=O)O (configuration not stated)	-14	.	0.046	.
C[C@H](CO)N1C[C@H](C)[C@H](CN(C)C(=O)Nc2ccccc2)Oc2c(NS(C)(=O)=O)cccc2C1=O	25	0.8	-0.26	1
Cn1c(SCc2ccc3c(c2)OCO3)nnc1-c1ccccc1	14	-0.1	-0.25	-35
C[C@@H]1CN([C@H](C)CO)C(=O)c2cc(NC(=O)c3ccncc3)ccc2O[C@H]1CN(C)S(=O)(=O)c1ccc(F)cc1	.	-1.1	-0.38	-8
C[C@@H]1CCCCO[C@H](CN(C)C(=O)Nc2ccc(C(F)(F)F)cc2)[C@@H](C)CN([C@H](C)CO)C(=O)c2cc(NS(=O)(=O)c3cccs3)ccc2O1	.	-0.4	-0.45	48
CN(C)c1ccc(NC(=O)CSc2nnc(-c3cnccn3)n2C)cc1	.	-0.5	.	-8
COc1ccc(S(=O)(=O)Nc2cccc3c2O[C@@H](CN(C)Cc2ccc(-c4ccccc4)cc2)[C@@H](C)CN([C@H](C)CO)C3=O)cc1	-38	-0.4	-0.42	-3
C[C@@H]1CN([C@H](C)CO)C(=O)Cc2cc(NS(=O)(=O)c3ccc(F)cc3)ccc2O[C@@H]1CN(C)Cc1ccc(-c2ccccc2)cc1	-9	-1.8	0.97	-8
C[C@@H]1CN([C@H](C)CO)C(=O)c2cc(N(C)C)ccc2O[C@@H]1CN(C)C(=O)Nc1ccc(F)cc1	.	0.4	0.21	-3
CN(CC(=O)Nc1ccc(Oc2ccccc2)cc1)S(=O)(=O)c1ccc(F)cc1	.	-0.7	.	30
CNC[C@H]1Oc2ccc(NS(=O)(=O)c3ccc(F)cc3)cc2CC(=O)N([C@@H](C)CO)C[C@H]1C	49	1.9	-0.64	17
CCCCC/C=C\C/C=C\C(O)CCCCCCC(=O)O (configuration not stated)	-2	0.0	-0.66	5
Cc1c(Cl)cccc1N(CC(=O)Nc1ccc(I)cc1)S(C)(=O)=O	.	1.2	.	-21
C[C@@H]1CCCCO[C@@H](CN(C)Cc2ccc(C(=O)Nc3ccccc3N)cc2)[C@@H](C)CN([C@H](C)CO)C(=O)c2cc(NC(=O)Nc3ccc(F)cc3)ccc2O1	.	0.7	0.097	-16
C[C@H](CO)N1C[C@H](C)[C@@H](CN(C)Cc2ccc(Oc3ccccc3)cc2)Oc2ccc(NS(=O)(=O)c3ccc(F)cc3)cc2C1=O	.	-4.1	-0.046	12
C[C@@H]1CN([C@H](C)CO)C(=O)Cc2cc(NC(=O)CCCN(C)C)ccc2O[C@@H]1CN(C)CC1CCCCC1	35	-0.2	-0.32	-10
Cc1noc(C)c1S(=O)(=O)Nc1ccc2c(c1)CC(=O)N([C@@H](C)CO)C[C@H](C)[C@H](CN(C)CC1CCCCC1)O2	?	0.7	0.0078	-27
C[C@H](CO)N1C[C@H](C)[C@@H](CN(C)S(C)(=O)=O)Oc2c(NC(=O)c3ccc(-c4nccs4)cc3)cccc2C1=O	7	0.4	0.034	-13
CC(=O)Nc1cccc(Oc2ccc3c(c2)C(=O)N(c2ccc(Oc4ccc(C)c(C)c4)cc2)C3=O)c1	.	-0.5	-0.03	40
C[C@@H]1CN([C@@H](C)CO)C(=O)c2cccc(NC(=O)C3CCCCC3)c2O[C@@H]1CN(C)CC1CC1	-2	1.8	-0.7	-1
CCOC(=O)c1cnc2c(C(=O)OC)cccc2c1NCc1ccco1	.	-2.7	.	-12
C[C@@H]1CCCCO[C@H](CN(C)CC2CC2)[C@@H](C)CN([C@H](C)CO)C(=O)c2cc(NC(=O)CCC(F)(F)F)ccc2O1	-25	0.9	0.3	-1
COc1ccc(NC(=O)CN2CCOCC2)c([N+](=O)[O-])c1	.	1.6	.	-15
COc1cc2oc(=O)ccc2cc1CC(O)C(C)(C)O (configuration not stated)	-33	2.6	-0.19	7
O=C(CN(C1CCCCC1)S(=O)(=O)c1ccc(Cl)cc1)Nc1ccc(F)cc1F	.	0.1	.	7
C[C@H](CO)N1C[C@H](C)[C@H](CN(C)S(=O)(=O)c2cn(C)cn2)Oc2ccc(NC(=O)Nc3ccc4c(c3)OCO4)cc2C1=O	.	.	0.06	-4
C[C@H]1CN([C@@H](C)CO)C(=O)c2cccc(NC(=O)Nc3ccccc3)c2O[C@@H]1CN(C)Cc1ccccc1	-22	.	-0.46	-15
Nc1ccc(C(=O)Nc2ccc(O)c(-c3nc4ccccc4o3)c2)cc1	-2	0.2	-0.43	-28
Cc1noc(C)c1S(=O)(=O)Nc1ccc2c(c1)C(=O)N([C@@H](C)CO)C[C@@H](C)[C@H](CN(C)Cc1ccc(C(=O)O)cc1)O2	.	1.5	-0.21	-4
CCCCC/C=C\C/C=C\C/C=C\C/C=C\CCCC(=O)O	-36	.	0.51	-2
COc1cc(NC(=O)COc2cccc(C)c2C)ccc1NC(=O)c1ccccc1Cl	.	1.1	.	-25
COc1ccc(NC(=O)Nc2cccc3c2O[C@@H](CN(C)C(=O)NC(C)C)[C@H](C)CN([C@@H](C)CO)C3=O)cc1	-15	1.0	0.15	-1
C[C@H]1CN([C@@H](C)CO)C(=O)c2cccc(NC(=O)c3ccncc3)c2O[C@@H]1CN(C)Cc1ccc(-c2ccccc2)cc1	23	.	-0.26	-3
O=C(CCCN1C(=O)c2ccccc2C1=O)Nc1cccc2c1CCCC2	.	1.1	.	-9
COC(=O)C1=NN(C(C)(C)CC(C)=O)C2C(=O)N(C3CCCCC3)C(=O)C12 (configuration not stated)	.	0.7	.	1
COc1ccc(NC(=O)Nc2cccc3c2O[C@H](CN(C)S(=O)(=O)c2ccc(C)cc2)[C@@H](C)CN([C@@H](C)CO)C3=O)cc1	-63	3.3	-0.41	-31
CC1OC(Oc2cc(O)c3c(=O)cc(-c4ccc(O)cc4)oc3c2C2OC(CO)C(O)C(O)C2O)C(O)C(O)C1O (configuration not stated)	-8	0.0	0.91	-4
CC(C)NC(=O)Nc1ccc2c(c1)CC(=O)N([C@@H](C)CO)C[C@H](C)[C@H](CN(C)C(=O)Nc1ccc3c(c1)OCO3)O2	65*	0.9	-0.19	-6
COc1ccc(CN(C)C[C@H]2Oc3c(NC(=O)c4cnccn4)cccc3C(=O)N([C@H](C)CO)C[C@@H]2C)cc1	-16	.	0.53	-3
CN1C(=O)C(O)(CC(=O)c2ccco2)c2cc([N+](=O)[O-])ccc21 (configuration not stated)	.	-0.1	.	4
CC(C)NC(=O)Nc1ccc2c(c1)C(=O)N([C@H](C)CO)C[C@H](C)[C@@H](CN(C)Cc1ccc(C(F)(F)F)cc1)OCCCC[C@@H](C)O2	11	.	-0.039	-10
C[C@H](CO)N1C[C@H](C)[C@@H](CN(C)C(=O)Nc2ccc(F)cc2)Oc2c(NC(=O)Nc3ccccc3)cccc2C1=O	-19	0.2	0.066	-7
C[C@@H]1CN([C@H](C)CO)C(=O)c2cccc(NC(=O)Nc3ccccc3)c2O[C@H]1CN(C)C(=O)Nc1ccc(F)cc1	30	.	-0.032	-9
C[C@@H]1CCCCO[C@H](CN(C)C(=O)Cc2ccccc2)[C@@H](C)CN([C@H](C)CO)C(=O)c2cc(NS(=O)(=O)c3ccc(F)cc3)ccc2O1	16	.	0.034	8
CCC(=O)N(Cc1cc2ccccc2[nH]c1=O)c1cccc(C)c1	.	3.1	.	-18
COC(=O)c1ccccc1NC(=S)NC(=O)COc1ccc(C)cc1	.	1.5	.	-7
C[C@@H]1CCCCO[C@H](CN(C)S(=O)(=O)c2ccc(F)cc2)[C@@H](C)CN([C@H](C)CO)C(=O)c2cc(NC(=O)Nc3ccc(C(F)(F)F)cc3)ccc2O1	20	-4.7	0.03	18
CC(=O)Oc1ccc2occ(C(=O)c3ccc(Br)s3)c2c1	-27	-1.1	0.025	-22
COc1cccc(NC(N)=O)c1	31	4.8	-0.17	-5
CCOC(=O)CC1Sc2ccccc2N=C1SCC(=O)Nc1cccc(C(F)(F)F)c1 (configuration not stated)	6	-5.1	1.1	-7
Additional records follow:
SMILES	Shh pathway inh	PD-1 reverse act	YB-1 expression	MITF inh
COC(=O)NC(Nc1cccc(C(F)(F)F)c1)C(=O)c1ccccc1 (configuration not stated)	.	-0.8	-0.7	4
Cc1noc(C)c1NC(=O)N(C)C[C@@H]1Oc2ccc(NS(=O)(=O)c3ccc(F)cc3)cc2C(=O)N([C@@H](C)CO)C[C@H]1C	-7	0.0	-0.076	-1
CCc1c(C#N)c(SCC(=O)c2c(C)[nH]c3ccccc23)nc2c1C(=O)CC(C)(C)C2	.	-4.0	.	12
C[C@@H]1CN([C@H](C)CO)C(=O)Cc2cc(NC(=O)Cc3cn(C)c4ccccc34)ccc2O[C@@H]1CN(C)S(C)(=O)=O	17	0.2	0.062	-4
C[C@@H]1CN([C@H](C)CO)C(=O)Cc2cc(NC(=O)c3ccncc3)ccc2O[C@@H]1CN(C)S(=O)(=O)c1cn(C)cn1	-6	-0.4	-0.27	-6
C[C@@H]1C[C@H]2OCC3=CCC[C@H]([C@]1(CC(O)c1ccoc1)C(=O)O)[C@]32CO (some centres not stated)	-22	-4.6	0.47	19
C[C@H](CO)N1C[C@H](C)[C@@H](CN(C)S(=O)(=O)c2ccc(F)cc2)Oc2c(NC(=O)C3CC3)cccc2C1=O	-18	0.8	0.11	1
COc1ccc(CN(C)C[C@H]2Oc3ccc(NC(=O)NC4CCCCC4)cc3C(=O)N([C@H](C)CO)C[C@@H]2C)cc1	7	.	0.042	2
COc1ccc(NC(=O)Nc2ccc3c(c2)C(=O)N([C@H](C)CO)C[C@@H](C)[C@@H](CN(C)Cc2ccc(Cl)c(Cl)c2)O3)cc1	.	0.7	0.24	16
CCOC(=O)c1cnc(N2CCOCC2)nc1N	-81	0.8	-0.18	-10
C[C@@H]1CN([C@H](C)CO)C(=O)c2cc(NC(=O)Nc3ccc(C(F)(F)F)cc3)ccc2O[C@@H]1CN(C)Cc1ccc(C(=O)Nc2ccccc2N)cc1	.	-2.2	-0.18	-22
CNC[C@H]1Oc2ccc(NC(=O)c3ccncc3)cc2CC(=O)N([C@@H](C)CO)C[C@H]1C	-53	1.6	0.058	5
C[C@@H]1CCCCO[C@@H](CN(C)S(=O)(=O)c2cn(C)cn2)[C@@H](C)CN([C@H](C)CO)C(=O)c2cc(NC(=O)c3ccncc3)ccc2O1	-15	3.7	0.54	4

Profiles as entered above.
CC(C)NC(=O)Nc1ccc2c(c1)C(=O)N([C@H](C)CO)C[C@H](C)[C@@H](CN(C)Cc1ccc(C(F)(F)F)cc1)OCCCC[C@@H](C)O2 is entered as Shh pathway inh = 11; PD-1 reverse act = .; YB-1 expression = -0.039; MITF inh = -10
C[C@@H]1CN([C@H](C)CO)C(=O)Cc2cc(NC(=O)c3ccncc3)ccc2O[C@@H]1CN(C)S(=O)(=O)c1cn(C)cn1 is entered as Shh pathway inh = -6; PD-1 reverse act = -0.4; YB-1 expression = -0.27; MITF inh = -6

Random excerpt: 4 entries already listed
SMILES	Shh pathway inh	PD-1 reverse act	YB-1 expression	MITF inh
COc1ccc(CN(C)C[C@H]2Oc3ccc(NC(=O)NC4CCCCC4)cc3C(=O)N([C@H](C)CO)C[C@@H]2C)cc1	7	.	0.042	2
C[C@@H]1CN([C@H](C)CO)C(=O)Cc2cc(NC(=O)Cc3cn(C)c4ccccc34)ccc2O[C@@H]1CN(C)S(C)(=O)=O	17	0.2	0.062	-4
COc1ccc(NC(=O)Nc2ccc3c(c2)C(=O)N([C@H](C)CO)C[C@@H](C)[C@@H](CN(C)Cc2ccc(Cl)c(Cl)c2)O3)cc1	.	0.7	0.24	16
C[C@H](CO)N1C[C@H](C)[C@@H](CN(C)S(=O)(=O)c2ccc(F)cc2)Oc2c(NC(=O)C3CC3)cccc2C1=O	-18	0.8	0.11	1

Only part of the results is shown. The share of hits here may be higher or lower than overall.
